H5N1 CPE: MDCK cell protection from H5N1 avian flu; inhibition, % at 50 µM; hit rate 0.07% among 96,000; cytopathic effect, luminescence, 72 h; stronger effect = higher value; no value below 0 was filed and about half of the inactive calls have no number; reference of the scale not given here; in the data active = inhibition above about 25%
The depositor's hits bear a star; i = inactive.

SMILES	H5N1 CPE
Cc1ccc(NC(=O)CSc2n[nH]c(-c3ccncc3)n2)cc1	i
COCCCNC(=O)CCn1c(=O)c2ccccc2n(CC(=O)Nc2c(C)cccc2C)c1=O	1.1
CCCCSc1nnc([C@@H](NC(=O)OC(C)(C)C)C(C)C)o1	i
CCN1CCCC1CNC(=O)C(NC(=O)C1CCC(C)CC1)C(C)C (stereo unspecified)	0.3
CCOC(=O)N1CCN(Cc2c(F)cccc2F)CC1	i
CCCCCCCCc1nnc(NC(=O)c2ccco2)s1	i
Cc1ccc(C(C)C)c(OCc2nnc3n2CCCCC3)c1	0.7
CCOC(=O)Cc1csc(NS(=O)(=O)c2ccc(F)cc2)n1	0.3
CCc1cc2ccccc2nc1SCC(=O)Nc1cc(C)on1	i
CCN1C2=NCCCN2c2cc(C)c(C)cc21	i
CN(c1nc2ccccc2n2c(-c3ccco3)nnc12)S(=O)(=O)c1ccccc1	2.1
Cc1cc(C)c(C#N)c(Oc2ccccc2)n1	i
Cc1ccccc1NC(=O)c1ccc(N/N=C/c2ccccc2O)c([N+](=O)[O-])c1	i
C=CCN(CC=C)C(=O)C1CCC(C(=O)N(CC=C)CC=C)CC1 (stereo unspecified)	i
O=C1CCCc2nc(N3CCN(c4ccccc4)CC3)ncc21	0.6
Cc1ccc2nc(NC(=O)CSc3nc4ccccc4o3)sc2c1	i
Cn1c(=O)c(=O)n(C)c2cc(S(=O)(=O)Nc3ccc(OC(F)(F)F)cc3)ccc21	2.9
CCc1c(O)nc(SC2CC(=O)N(c3ccccc3)C2=O)[nH]c1=O (stereo unspecified)	i
Cc1cccc(NC(=O)C(=O)NCc2ccccn2)c1	i
CC1CCN(C(=O)CSc2nnc(CNC(=O)c3ccco3)o2)CC1	2.1
CCN(CC)C(=O)CSc1nc2ccccc2c(=O)n1-c1ccccc1OC	0.3
COc1ccc(NC2c3ccccc3C(=O)N2c2ccccn2)cc1Cl (stereo unspecified)	2.0
CN(C(=O)c1cccnc1)c1nnc(-c2ccccn2)s1	i
COc1ccccc1-c1cc(C(=O)NCCN2CCOCC2)no1	0.2
COCC(=O)N(C)c1nnc(-c2ccccn2)s1	0.6

Structural class, those above containing an NH in an aromatic ring (two)
SMILES	H5N1 CPE
Cc1ccc(NC(=O)CSc2n[nH]c(-c3ccncc3)n2)cc1	i
CCc1c(O)nc(SC2CC(=O)N(c3ccccc3)C2=O)[nH]c1=O (stereo unspecified)	i

The listing picks up, repeating the 3 entries before the break.
SMILES	H5N1 CPE
CN(C(=O)c1cccnc1)c1nnc(-c2ccccn2)s1	i
COc1ccccc1-c1cc(C(=O)NCCN2CCOCC2)no1	0.2
COCC(=O)N(C)c1nnc(-c2ccccn2)s1	0.6
COCCNS(=O)(=O)c1ccc(OCC(=O)OC)c(Cl)c1	0.2
Cc1cc(NC(=O)C2CCCCC2C(=O)O)no1 (stereo unspecified)	i
O=C(NCC(=O)N1CCN(c2ncccn2)CC1)c1cccs1	1.1
O=C1CSC(=NC2CCCCC2)N1	i
O=C(CCN1C(=O)COc2ccccc21)NCc1cccs1	0.9
COc1cccc(N(CC(=O)O)S(=O)(=O)c2ccccc2)c1	i
CCc1c(C)n([O-])c2c([n+]1=O)CCCCC2	0.6
COc1ccc(-n2nc([N+](=O)[O-])c(=NCCc3ccc(Cl)cc3)n2O)cc1	i
Cc1ccc(SCCC(=O)NCC2CCCO2)cc1 (stereo unspecified)	i
CN1C(=O)N(C)C2C1N(CN1CCCCC1)C(=O)N2CN1CCCCC1 (stereo unspecified)	i
CC1CC(C)CN(Cc2nc(N)nc(Nc3ccccc3)n2)C1 (stereo unspecified)	i
CCCC(=O)Nc1ccc2c(c1)nc(CCNC(=O)c1ccccc1)n2C	0.8
O=C(NCCN=C1NS(=O)(=O)c2ccccc21)c1ccncc1	i
O=C1OCCC1Sc1nc2cc(Cl)ccc2s1 (stereo unspecified)	0.5
CCCCNCCCOc1cccc(Cl)c1Cl	i
O=C(CSc1nnc(Cn2c(=O)sc3ccccc32)n1-c1ccccc1)NCC1CCCO1 (stereo unspecified)	0.4
O=C(CNC(=O)Cn1ccc2ccccc2c1=O)NCCCN1CCN(c2cccc(Cl)c2)CC1	0.5
CC(NC(=O)CCCCCN1C(=O)c2ccccc2C1=O)c1ccc2c(c1)CCCC2 (stereo unspecified)	i
CCOC(=O)c1sc(=S)n(-c2cccc(OC)c2)c1N	i
N#Cc1c(NC(=O)C2CC(c3ccccc3Cl)=NO2)sc2c1CCC2 (stereo unspecified)	0.3
O=C(Cc1ccccc1)Oc1ccccc1N1C(=O)CCC1=O	i
Cc1cc(N2CCC(C)CC2)n2ncc(-c3ccccc3)c2n1	1.4
COc1ccc(N2CCC(CNC(=O)Nc3cccc(OC)c3)C2)cc1 (stereo unspecified)	i
Cc1n[nH]c(=O)nc1NCC1CCCO1 (stereo unspecified)	i
COC(=O)c1c(C)[nH]c(C(=O)C(C)Sc2nnc(-c3cc(OC)c(OC)c(OC)c3)o2)c1C (stereo unspecified)	i
(cont.)
SMILES	H5N1 CPE
COc1ccc2c(c1)c1ncn(CCN3CCCCC3)c(=O)c1n2C	i
CCOC(=O)/N=C(/NC(=O)Nc1ccc(C(=O)OCC)cc1)OC	0.3
CCCC(OC(=O)CN1C(=O)COc2ccccc21)C(=O)NC1CCCC1 (stereo unspecified)	i
CC(=O)c1ccc(N2CCN(C(=O)c3ccc(OCc4c(C)noc4C)cc3)CC2)cc1	i
CCOc1ccc(NC(=S)Nc2cc(-c3ccccc3)[nH]n2)cc1	i
COc1cc(S(=O)(=O)N(C)C)ccc1F	i
COc1ccc(C2=NOC(C(=O)NCc3cccs3)C2)cc1OC (stereo unspecified)	i
O=C(CS(=O)(=O)Cc1ccccc1)Nc1ncccn1	i
CSCCNC(=O)c1ccc(C(C)(C)C)cc1	0.9
O=C(O)CCC(=O)Nc1ccccc1C(=O)NC1CCCCC1	0.7
CCn1c(SCC(=O)NCCc2ccccc2)nc2c(c1=O)SC(C)C2 (stereo unspecified)	0.6
O=C(c1ccccc1)n1ccc(-c2cnc(-c3ccccc3)s2)n1	i
CCOC(=O)C1=NNC(C(=O)c2ccc(OC)cc2)C1c1ccccc1 (stereo unspecified)	1.2
Nc1nc(-c2cccnc2)nn1C(=O)COc1ccccc1	0.5
CCN(c1ccc(NC(=O)CSc2nnc3nc(C)cc(C)n23)cc1)C(C)C	0.1
CC(C)(C)n1nc2c(c1NC(=O)c1cccs1)CS(=O)C2 (stereo unspecified)	i
CC(Sc1nnc(Cc2cccs2)n1C1CCCCC1)C(=O)NCc1ccco1 (stereo unspecified)	i
COc1ccccc1NC(=O)Cc1cccs1	0.7
Cc1noc(NS(=O)(=O)c2ccc(N/C=C/C(=O)c3ccc4c(c3)OCO4)cc2)c1C	i
CC(C)N(C(=O)CN(C#N)c1nc(N(C)C)nc(N(C)C)n1)c1ccccc1	0.5
Cc1nnc(SCC(=O)NCc2ccco2)n1-c1ccccc1	0.1
CCc1oc(C(=O)O)cc1CN(CC)CC	i
CC(C)c1ccc(-c2nc(N3CCCCCC3)nc3n[nH]c(N)c23)cc1	1.0
CCOC(=O)NC(=O)CSc1nnnn1-c1ccc(Cl)cc1	1.6
Cn1c(NCCO)nc2c(c1=O)C1(CCCCC1)Cc1ccccc1-2	i

Next section; the last four above are carried over.
SMILES	H5N1 CPE
CCc1oc(C(=O)O)cc1CN(CC)CC	i
CC(C)c1ccc(-c2nc(N3CCCCCC3)nc3n[nH]c(N)c23)cc1	1.0
CCOC(=O)NC(=O)CSc1nnnn1-c1ccc(Cl)cc1	1.6
Cn1c(NCCO)nc2c(c1=O)C1(CCCCC1)Cc1ccccc1-2	i
Clc1ccc(Cn2ncc3c(N4CCCCC4)ncnc32)cc1	i
COc1ccc(OC)c(C2C(C(C)=O)=C(O)C(=O)N2c2ccc(O)cc2)c1 (stereo unspecified)	1.4
O=C(O)c1cc(/C=N\O)ccc1OCc1ccccc1	i
COC(=O)[C@H](C)NC(=O)Nc1ccc(C)c(C)c1	0.4
c1ccc(C2=Nn3c(nnc3-c3n[nH]c4c3CCC4)SC2)cc1	8.2
c1ccc2nc(-c3nc4ccccc4[nH]3)ccc2c1	i
C=C(C)c1cccc(C(C)(C)NC(=O)Nc2ncccn2)c1	0.3
COc1ccc(-c2nc3cnccn3c2Nc2ccc(C)cc2)cc1	0.2
N#C/C(=C(\O)CCl)c1nnc2n1CCCCC2	i
Cc1ccccc1Cn1c(=O)n(CCC(=O)NCc2ccc3c(c2)OCO3)c(=O)c2ccccc21	0.2
COc1ccc(Cl)cc1NC(=O)CCCN1C(=O)CCC1=O	0.3
Cc1cccc(OCCSCc2nc3ccccc3[nH]2)c1	1.0
O=C(O)C(=O)/C(=C\c1ccccc1)c1ccc2ccccc2n1	0.5
COc1ccc(C(C)C)cc1S(=O)(=O)Nc1ccc(Cl)cn1	0.1
CC(C)C12CN3CC(C(C)C)(CN(C1)C3c1ccccc1)C2O (stereo unspecified)	i
O=C(OCC(=O)N1CCCCC1)c1c[nH]c(=O)[nH]c1=O	0.2
COc1ccc(C2C(C(=O)Nc3ccccc3OC)=C(C)Nc3nnnn32)c(OC)c1 (stereo unspecified)	0.4
Cc1ccc(-c2noc(-c3ccccc3C(=O)N3CCOCC3)n2)cc1	i
CCS(=O)(=O)c1ccc(C(=O)Nc2ccccc2)c(Cl)c1Cl	0.8
O=C1CC(c2ccccc2)Sc2ccccc2N1 (stereo unspecified)	1.1
COc1ccc(C(=O)C/C(=C\C(=O)c2ccc(C)cc2)c2ccccc2)cc1	i
O=S1(=O)N=C(Nc2ccc(N3CCOCC3)cc2)c2ccccc21	i
CCN(CC)C(=S)NC(=O)c1ccc(Cl)cc1Cl	0.3
CCOc1cccc(NC(=O)c2ccc(S(=O)(=O)N(C)C)cc2)c1	1.3
COc1ccc(OCCC(=O)OCC(=O)NCc2ccco2)cc1	i
Going on with the list:
SMILES	H5N1 CPE
CCC(C)C(NC(=O)C1CCC(C)CC1)C(=O)Nc1cc(OC)ccc1OC (stereo unspecified)	i
CC1(c2cccs2)CC(c2cccs2)=C(C#N)C(=O)N1 (stereo unspecified)	1.5
Cc1c(C(N)=O)c(N)c(C(=O)c2ccccc2)n1-c1ccccc1	0.1
Cc1ccc(N2C(=O)/C(=C/c3ccc(CN(CCC#N)S(C)(=O)=O)o3)C(=O)NC2=S)cc1	0.4
CCN(CC)S(=O)(=O)c1ccc(NC2c3ncccc3C(=O)N2Cc2ccccc2)cc1 (stereo unspecified)	0.5
CCOc1cc(/C=N/NC(=O)COc2ccc(C)cc2)ccc1OC(=O)c1cccs1	i
O=C(CN1CCC(NC(=O)c2cccc(F)c2)CC1)NCc1ccccc1F	0.2
COc1ccc(S(=O)(=O)N2CCN(C(=O)[C@@H]3CCC(=O)N3C3OC(=O)c4ccccc43)CC2)cc1 (stereo partly specified)	2.1
COc1ccccc1OCc1nnc(SCC(=O)NCc2ccco2)n1Cc1ccco1	0.8
Cc1[nH]c2ccccc2c1C(=O)CNc1nccs1	2.0
CC(C)(Oc1ccc(Br)cc1)C(=O)N1CCc2ccccc21	i
c1cc2c(cc1Nc1nc(-c3ccc4c(c3)OCO4)cs1)OCCO2	i
CS(=O)(=O)N(C(=O)NC(=O)NC1CCS(=O)(=O)C1)C1CCCCC1 (stereo unspecified)	i
O=C(Nc1ccc(N2CCCC2)cc1)c1ccc(Br)o1	i
CCCC(=O)Nc1nc(C)c(-c2csc(Nc3ccccc3C)n2)s1	i
N#Cc1ccc(-c2ccc(F)cc2)nc1Sc1ccc(F)cc1	0.2
COc1cc(NC(=O)c2cc3ccccc3o2)c(OC)cc1Cl	i
CSc1ccc(/C=C/C(=O)c2ccc(NC(=O)C(C)C)cc2)cc1	1.6
COc1ccc(NC(=O)CN2CCN(CC(=O)Nc3ccc4c(c3)OCO4)CC2)cc1	i
O=C(Nc1ccc(N2CCCCC2)cc1)c1ccccc1	i
CCOc1cccc(C(=O)N(Cc2ccc(F)cc2)C2CCS(=O)(=O)C2)c1 (stereo unspecified)	1.7
COc1ccc(NC(=O)Nc2ccc(OC)cc2)cc1	0.2
CC(C)CC(=O)Nc1ccc(-c2cn3ccsc3n2)cc1	i
CC(CN1CCCC1)OC(=O)COc1ccccc1 (stereo unspecified)	0.1
Cc1ccc(S(=O)(=O)N2CCN(S(=O)(=O)c3ccccc3)C2)cc1	2.3

Three consecutive compounds already listed, quoted:
SMILES	H5N1 CPE
O=C(CN1CCC(NC(=O)c2cccc(F)c2)CC1)NCc1ccccc1F	0.2
COc1ccc(S(=O)(=O)N2CCN(C(=O)[C@@H]3CCC(=O)N3C3OC(=O)c4ccccc43)CC2)cc1 (stereo partly specified)	2.1
COc1ccccc1OCc1nnc(SCC(=O)NCc2ccco2)n1Cc1ccco1	0.8

Next results follow:
SMILES	H5N1 CPE
C=CCn1c(SCC(=O)N2CC(=O)Nc3ccccc32)nc2scc(-c3ccccc3)c2c1=O	i
COc1ccc(/C(O)=C2/C(=O)C(=O)N(CCCN(C)C)C2c2ccccc2)cc1Cl (stereo unspecified)	0.8
O=C(NCC1CCCO1)c1cccc(F)c1 (stereo unspecified)	i
COc1ccc(-c2[nH]ncc2/C=C(\C#N)C(=O)NC2CC2)cc1	i
COc1ccc(Cn2nnnc2C(c2cccs2)N2CCSCC2)cc1 (stereo unspecified)	1.5
CCOC(=O)c1[nH]c(C)c(/C=N/O)c1C	0.1
COc1ccc(CN2CCN(C(=O)CC(C)C)CC2)c2ccccc12	1.3
CC(NC(=O)OCc1ccccc1)C(=O)OCN1C(=O)c2ccccc2C1=O (stereo unspecified)	0.0
N#Cc1c(SCC(N)=O)nc2c(c1-c1ccc(O)cc1)CCCC2	1.6

Bioassay records: PubChem, SRMLSC

These rows are one share of the data, so the mix of outcomes need not match the whole.
